# Compound activity: PubChem, National Center for Advancing Translational Sciences (NCATS)
# Vaccinia Venus – vaccinia inhibition (Venus reporter) | Vaccinia virus Venus reporter expression, fluorescence | Potency, µM (series often up to 36.5 µM), without a hit: at the highest dose activity change, negative = inhibition, hits mostly inhibitors | 0.46% of 330,000 active; active means well fitted inhibition curve with a large enough effect; inconclusive means small, poorly fitted or top-dose-only effect; inactive means no such curve, though single readings can be large or run the other way; tested in A549 cells; further: nearly all actives have a fitted effect of over 30% in size; inactives centre near -10
# Vaccinia mCherry – inhibitors of vaccinia virus infection (mCherry reporter signal). Vaccinia virus mCherry reporter infection, fluorescence; about a quarter of the inactives have no number. Potency, µM (highest dose often 36.5 µM), inactives show at the top dose activity change, negative = inhibition, usual class: inhibitors. 0.63% of 310,000 active; active = well fitted inhibition curve with a large enough effect; inconclusive = small, poorly fitted or top-dose-only effect; inactive = no such curve, though single readings can be large or run the other way; tested in A549 cells; further: nearly all actives have a fitted effect of over 35% in size; inactives centre near -10
# An asterisk follows results filed as active; i = inactive; ? = inconclusive; nt = not tested or not shown; [ ] = another dose, or the depositor's remark. On the % scale 0 is the no-effect control and ±100 the full control effect; potency means the concentration at half of the fitted maximal effect.
SMILES | Vaccinia Venus | Vaccinia mCherry
COc1ccc(NC(=O)CN2CCN(Cc3ccccc3Cl)S2(=O)=O)cc1Cl | 4% | 6%
COc1ccc2c(c1OC)C(=O)OC2c1c(O)n(Cc2ccc(F)cc2)c(=O)[nH]c1=O (stereo not given) | -1% | -14%
CC(C)N1CCN(Cc2ccsc2)CC1CCO (stereo not given) | 8% | -15%
N#Cc1ccc(C(=O)Nc2cc(S(=O)(=O)N3CCOCC3)ccc2N2CCCC2)cc1 | -29% | -13%
CCOC(=O)C1C(=O)OC(C)(C)C1C(CC)C(=O)c1ccccc1 (stereo not given) | -9% | -15%
Cc1cc(C)cc(Cn2cc(CN3CC(N4CCN(CCN(C)C)CC4)CS3(=O)=O)nn2)c1 (stereo not given) | -6% | -3%
CN1CCN(S(=O)(=O)c2ccc3c(c2)oc(=O)n3C)CC1 | 1% | -28%
Cc1scc(-c2n[nH]c(=S)n2Cc2ccccc2)c1C | -7% | -11%
O=C1NC[C@H](Cc2ccccc2)N(CC2CCN(CCc3ccc(-c4ccccc4)cc3)CC2)C1=O | -25% | -20%
Cc1nc2scc(-c3ccccc3)c2c(=O)o1 | 3% | -9%
Cc1cccc(-n2c3nc(=O)n(C)c(=O)c-3cc3c(Cl)cccc32)c1C | -2% | -4%
CC1=C(C(=O)N(C)C)CC(CC(=O)NCCc2ccccn2)C(=O)N1Cc1ccc(F)cc1 (stereo not given) | -5% | i
O=C(Nc1cccc(C(=O)Nc2ccccc2F)c1)c1ccccc1 | -16% | i
CCOC(=O)C1=C(C)NC(=S)N(C(C)=O)C1c1ccc(OC)c(OC)c1 (stereo not given) | -26% | -9%
CC1(C)Cc2nc(NC3CCCCC3)c(C#N)cc2CO1 | -2% | i
COc1cc(NC(=O)CSc2nc3ncccc3o2)cc(OC)c1 | -10% | -5%
COc1cccc(OC)c1NC(=O)C1CCCN1C(=O)Nc1ccccc1Cl (stereo not given) | -19% | -34%
CO[C@H]1CN(C)C(=O)c2cc(NC(=O)C3CCCC3)ccc2OC[C@@H](C)NC[C@H]1C | -10% | -12%
CCOC(=O)c1nn(-c2ccccc2)c(=O)c2c(NC(C)=O)scc12 | 3% | 0%
O=c1[nH]nc(-c2ccc(NCCO)c([N+](=O)[O-])c2)c2ccccc12 | -12% | i
CCCCOc1ccc(-n2nc(C)cc2C)nn1 | -23% | nt
COc1ccc(NC(=S)Nc2ccccn2)c(OC)c1 | -24% | -5%
CCOC(=O)Cc1nnc(NC(=O)c2ccccc2OC)s1 | -2% | nt
Cc1cc(CN(C)C(=O)C2CCC(=O)N(CCc3ccccc3)C2)n[nH]1 (stereo not given) | -13% | i
COc1ccc([N+](=O)[O-])cc1NS(=O)(=O)c1cccc(C(=O)NCCCN2CCCC2=O)c1 | -2% | -7%

# Laid out differently: entries from further up
mol: COc1ccc(NC(=O)CN2CCN(Cc3ccccc3Cl)S2(=O)=O)cc1Cl
  Vaccinia Venus: 4%; Vaccinia mCherry: 6%

mol: COc1ccc2c(c1OC)C(=O)OC2c1c(O)n(Cc2ccc(F)cc2)c(=O)[nH]c1=O (stereo not given)
  Vaccinia Venus: -1%; Vaccinia mCherry: -14%

mol: CC(C)N1CCN(Cc2ccsc2)CC1CCO (stereo not given)
  Vaccinia Venus: 8%; Vaccinia mCherry: -15%

mol: N#Cc1ccc(C(=O)Nc2cc(S(=O)(=O)N3CCOCC3)ccc2N2CCCC2)cc1
  Vaccinia Venus: -29%; Vaccinia mCherry: -13%

# Next records:
SMILES | Vaccinia Venus | Vaccinia mCherry
COc1ccc(OC)c(NC(=O)CN(C)CC(=O)Nc2ccccc2Cl)c1 | -16% | i
CCCc1cc(=O)oc2cc(OCC(=O)NC(Cc3ccc(Cl)cc3)C(=O)O)ccc12 (stereo not given) | -2% | -2%
Oc1ccc(/C=N/Nc2ccccc2)cc1 | -3% | -7%
Cc1ccccc1-n1c(C)cc(/C=C(\C#N)C(=O)NCC2CCCO2)c1C (stereo not given) | -10% | -14%
Cc1cc(=O)[nH]c(N/N=C/c2c(C)nn(-c3ccccc3)c2C)n1 | -24% | -5%
CCOc1ccc(NC(=O)C2CCN(S(=O)(=O)c3ccc4c(c3)C(C)(C)C(=O)N4C)CC2)cc1 | -12% | 36%[activator]
Cc1noc(C)c1C(=O)Nc1ccc2c(c1)CCC2 | -6% | -19%
COc1ccc(F)cc1-c1cc(C(=O)NCc2ccc(F)cc2)[nH]n1 | -4% | -4%
Cn1nc(C(=O)NNC(=O)c2cccc(Cl)c2)c2ccccc2c1=O | 3% | -8%
CCOC(=O)C1=C(CN2CCN(C(=O)c3ccco3)CC2)NC(=O)NC1c1ccc(F)cc1 (stereo not given) | -7% | -7%
CC1(C)O[C@@H]2C[C@H]3[C@@H]4CCC5=CC(=O)CC[C@]5(C)[C@@]4(F)[C@@H](O)C[C@]3(C)[C@]2(C(=O)CCl)O1 | -14% | i
COCC(=O)NCCc1nc2ccccc2[nH]1 | 11% | -9%
COc1ccccc1CNc1ccccc1F | -1% | i
CCNC(=O)C1(C)CCCN1Cc1c(F)cccc1F (stereo not given) | 3% | 20%
COc1ccc(/C=C(\NC(=O)c2ccccc2)C(=O)N2CCN(C)CC2)cc1OC | -4% | 14%
CC(C)(C)C(=O)N1CCN(c2nc3c(F)cccc3s2)CC1 | -15% | i
COc1cccc(C(=O)c2sc(Nc3ccc(C)cc3C)c(S(=O)(=O)c3ccccc3)c2N)c1 | -12% | -12%
N#CC(C#N)=Cc1cc2ccccc2nc1N1CCCCC1 | -18% | -7%
O=C(CN1CCC(NC(=O)Cc2ccccc2)CC1)Nc1cccc2ccccc12 | -4% | -11%
CN(C(=O)CSc1nc2ncccc2o1)c1ccc(F)cc1 | -8% | -13%
O=C(NCCCN1CCOCC1)C(=O)NCC1OCCN1S(=O)(=O)c1ccc(Br)cc1 (stereo not given) | -7% | i
COc1cc(SC)ccc1C(=O)NNC(=O)C1COc2ccccc2O1 (stereo not given) | -17% | i
O=C(NCc1cccc(Br)c1)C1CC2Cn3c(nc4ccccc43)C2N1Cc1ccccc1 (stereo not given) | -29% | i
CCOC(=O)N1CCN(S(=O)(=O)c2ccc(C(=O)N(CCCN(C)C)c3nc4c(C)c(C)ccc4s3)cc2)CC1 | -27% | ?
O=C(Oc1cccnc1)c1ccc([N+](=O)[O-])cc1 | -17% | -9%

# Other structures
SMILES | Vaccinia Venus | Vaccinia mCherry
C[C@@H]1CN(Cc2ccc3c(c2)CN(Cc2cccn2-c2cccnc2)CCO3)C[C@H](C)O1 | -14% | -19%
COc1ccc(N2CCN(C(=O)Cn3c(-c4cccs4)cc4ccccc43)CC2)cc1 | -1% | -6%
CCn1c(=O)n(-c2ccc(F)c(Cl)c2)c(=O)c2c3c(sc21)CN(C(C)=O)CC3 | -5% | -16%
Cc1ccc(C(=O)c2cn(Cc3cccc(C)c3)c3nc(C)ccc3c2=O)cc1 | -12% | -13%
Cc1noc(C)c1COC(=O)[C@H](C)NS(=O)(=O)c1ccc(Cl)c(Cl)c1 | -12% | i
CCOC(=O)c1c(C)oc2c(Cl)cc(NS(=O)(=O)c3ccc(Cl)c(C)c3)cc12 | -3% | -15%
CC(C)CC1Nc2ncnc(N3CCCCC3)c2N(Cc2ccc(Br)cc2)C1=O (stereo not given) | ? | -6%
O=C(NCc1ccco1)c1ccc2c(c1)N(Cc1ccc(F)cc1)C(=O)c1ccccc1S2=O (stereo not given) | -5% | -11%
COc1ccc2c(c1)nc(SCC(=O)c1cccs1)n2C | ? | ?
O=C(NCCc1ccc(Cl)cc1)c1ccc2c(c1)nc1n2CCOC1 | -15% | i
CCOC(=O)CN(C(=O)c1ccccc1[N+](=O)[O-])C(C)(C)C | -13%[7.34 µM] | i[7.34 µM]
Cc1c(C(=O)N2CCc3ccccc3C2)oc2ccc(Br)cc12 | 1% | i
O=C1C=C(c2ccc(Cl)c(C(F)(F)F)c2)C[C@@H](c2ccc3c(c2)OCO3)C1 | ? | 0%
Cc1cc2c(NC3CCCCC3)ncnc2s1 | -22% | -7%
CC1(C)C(CO)=CC(=O)C2=C1SCC(=O)N2 | -1% | i
COc1ccc(NS(=O)(=O)c2ccc(N3CCCC3=O)cc2)cn1 | -19% | -20%
C=CCC1C=CCC(CC=C)N1C(=O)c1ccccc1[N+](=O)[O-] (stereo not given) | -14% | -18%
CCOc1ccc(S(=O)(=O)NCc2cccnc2)cc1 | -10% | i
Cc1ccc(OCC(=O)Nc2ccc(N3CCOCC3)cc2)c([N+](=O)[O-])n1 | -2% | -2%
CC(C)N(Cc1nc(-c2ccccc2)no1)C(=O)CCCN1C(=O)c2ccccc2C1=O | -8% | i
Cc1c(NC(=O)C(C)Oc2ncnc3ccccc23)c(=O)n(-c2ccccc2)n1C (stereo not given) | -8% | nt
CC(=O)C1CCC2C3CCC4=CC(=O)C=CC4(C)C3C(=O)CC12C (stereo not given) | -15% | i
CC[n+]1ccc(C)c2cc(SC(F)(F)F)ccc21 | -13% | -14%
Cc1nc2ccccc2nc1CN1CCC(CO)(CC2CCCCO2)CC1 (stereo not given) | -12% | -10%
O=C(O)c1ccccc1C(=O)Nc1ccc(-n2ccc(C(F)(F)F)n2)cc1 | -23% | i

# Next entries
structure | Vaccinia Venus | Vaccinia mCherry
Cc1cc(C)c(S(=O)(=O)N2CCN(Cc3ccc4c(c3)OCO4)CC2)cc1C | -3% | 2%
Cc1ccccc1NC(=O)COC(=O)C1CC2CCCC(C1)C2=O (stereo not given) | -9% | -4%
Cc1cc2ccccn2c1C(=O)c1cccc([N+](=O)[O-])c1 | -11% | -15%
CCc1ccc(NC(=O)NNC(=O)CCc2ccccc2)cc1 | -3% | i
O=C(CCC(=O)OCC(F)(F)C(F)F)Nc1ccc(F)cc1F | -13% | -15%
CCc1nn(-c2ccccc2)c2nc(-c3ccccc3OC)c3cc(OC)c(OC)cc3c12 | -15% | -13%
COc1ccc([C@@H]2C[C@@H](c3ccccc3)Oc3cc(C)cc(C)c32)cc1 | -4% | 2%
CCCCC(=O)N(C)c1c(CC)nc2c(OCCOC)cccn12 | -15% | i
CCCCOCC(O)CCc1n[nH]c(=S)n1-c1ccccc1 (stereo not given) | -1% | i
Cc1cccc2c1-c1sc(C(=O)N3CCc4ccccc4C3)cc1CO2 | -3% | ?
Cc1csc2ncc(C(=O)NCc3ccccc3Cl)c(=O)n12 | -16% | i
Cc1ccc2nc(SC(C)C(=O)N3CCCC3)[nH]c2c1 (stereo not given) | -7% | -18%

# Other results follow.
structure | Vaccinia Venus | Vaccinia mCherry
Cc1ccc(-c2nnn(CC(=O)N(c3ccccc3)C(C(=O)NC3CCCC3)c3ccco3)n2)o1 (stereo not given) | -9% | -19%
CCc1ccc(CN(C)C(C)C(=O)Nc2ccc(S(=O)(=O)N3CCCC3)cc2)cc1 (stereo not given) | -11% | i
O=C(NCCc1ccccn1)C1CC12CCN(C(=O)c1c(F)cccc1Cl)CC2 (stereo not given) | -4% | 1%
CCOCCCNC(=S)NCCCNc1nc2c(C)c(C)ccc2cc1C#N | -23% | -7%
CCCCn1c(N)c(N(C)C(=O)CCCn2c(=O)oc3ccccc32)c(=O)[nH]c1=O | 1% | -20%
Cc1cccc(-c2nc(CCNC(=O)c3ccc(Br)o3)cs2)c1 | -1% | 1%
c1cc(Nc2cccc3nccnc23)c2nccnc2c1 | -19% | -2%
Cc1cc(-n2cnc(-c3cn(C)nc3C)n2)no1 | -13% | -1%
Cc1cc(N)ncc1[N+](=O)[O-] | -2% | -6%
O=C(CCc1ccc(S(=O)(=O)N2CCOCC2)cc1)N1CCCC1 | -4% | i
COc1ccccc1C(=O)Nc1cccc(OCc2cc(=O)n3ccccc3n2)c1 | -8% | -1%
COc1ccc(CNC(=O)CC2N=C3c4ccccc4N=C(SCC(=O)Nc4ccc(N(C)C)cc4)N3C2=O)cc1 (stereo not given) | -3% | i

# New compounds follow
structure | Vaccinia Venus | Vaccinia mCherry
Cc1ccc(S(=O)(=O)CCC(=O)Nc2ccc(Br)cc2)cc1 | -17% | i
O=C(NNC1=C(C(=O)C(F)(F)F)CCC1)c1cccnc1 | -8% | 4%
Cc1cccc(-n2c(-c3ccccc3)nc3ccccc3c2=O)n1 | 2% | i
COc1ccccc1/C=C1\SC(=O)N(CC(=O)NCCCn2ccnc2)C1=O | -11% | -22%
O=[N+]([O-])c1ccc2c(c1)C=C/C2=C/c1ccccc1 | -3% | -15%
O=C(NC(=S)Nc1cccnc1Cl)c1ccc(F)cc1 | -6% | -11%
Cc1c(CNC2CCCCCC2)c(C(=O)O)c(C)n1Cc1cccc(Cl)c1 | -18% | -13%
Cc1cccc(-c2c3c(=O)n(C)c(=O)n(C)c3c3cnc4ccccc4n23)c1 | -3% | -12%
O=C(Cc1ccc([N+](=O)[O-])cc1)Nc1ccc2c(c1)OCO2 | 2% | i
CC1(C)Cc2c(c(-c3ccccc3)[nH]c(=O)c2C#N)CS1 | -5% | -15%
Cc1csc(NC(=O)c2ccco2)c1C(=O)c1ccccc1 | -20%[7.34 µM] | -24%[7.34 µM]
COc1ccccc1CCNC(=O)C(=O)NCC(c1cccs1)S(=O)(=O)c1ccc(F)cc1 (stereo not given) | -13% | -23%
Cc1cc(N(C)C)c(C#N)c(=O)[nH]1 | -1% | -10%

# Given with each value named: part of the list above.
COc1ccccc1/C=C1\SC(=O)N(CC(=O)NCCCn2ccnc2)C1=O
  Vaccinia Venus = -11%; Vaccinia mCherry = -22%
O=C(NNC1=C(C(=O)C(F)(F)F)CCC1)c1cccnc1
  Vaccinia Venus = -8%; Vaccinia mCherry = 4%
CC1(C)Cc2c(c(-c3ccccc3)[nH]c(=O)c2C#N)CS1
  Vaccinia Venus = -5%; Vaccinia mCherry = -15%
Cc1csc(NC(=O)c2ccco2)c1C(=O)c1ccccc1
  Vaccinia Venus = -20%[7.34 µM]; Vaccinia mCherry = -24%[7.34 µM]
